High-throughput results deposited in PubChem BioAssay by National Center for Advancing Translational Sciences (NCATS).
nsP2pro inh = inhibitors of chikungunya virus nsP2 protease; Q8JUX6; FRET peptide cleavage, nsP2pro, fluorescence 1 h; Potency, µM (series often up to 24.9 µM), for the others: at the top dose activity change, negative = inhibition, usual class: inhibitors; hit rate 1.1% among 31,000; active means well fitted inhibition curve with a large enough effect; inconclusive means small, poorly fitted or top-dose-only effect; inactive means no such curve, though single readings can be large or run the other way; note: nearly all actives have a fitted effect of over 60% in size; a reference inhibitor and vehicle were the controls
* = called active by the depositor; i = inactive; u = inconclusive; [ ] = another dose, or the depositor's remark. % is set by controls: 0 for no effect and ±100 for the full control effect; potency is the fitted concentration of half-maximal effect.

SMILES	nsP2pro inh
CSCC[C@@H]1NC(=O)c2cc(NC(=O)c3ccc(-n4cnnn4)cc3)ccc2NC1=O	1%
Cc1ccccc1NC(=O)Nc1ccc(CN2C(=O)N([C@@H](CC(C)C)C(=O)N[C@@H](CC(=O)O)c3ccccc3)C(=O)C2(C)C)cc1	-4%
CC(C)=CCC[C@](C)(O[C@@H]1O[C@H](CO[C@@H]2OC[C@@H](O)[C@H](O)[C@H]2O)[C@@H](O)[C@H](O)[C@H]1O)[C@H]1CC[C@]2(C)[C@@H]1[C@H](O)C[C@@H]1[C@@]3(C)CC[C@H](O[C@@H]4O[C@H](CO)[C@@H](O)[C@H](O)[C@H]4O[C@@H]4O[C@H](CO)[C@@H](O)[C@H](O)[C@H]4O)C(C)(C)[C@@H]3CC[C@]12C	12%[10 µM]
CCN(CC)c1ccc(-n2nc3cc(C)c(NC(=O)c4ccccc4C)cc3n2)c(C)c1	-14%
COC(=O)c1cc(-c2ccc(Cl)cc2)c2c(=O)[nH]c(=O)n(C)c2n1	-10%
O=C(CNC(=O)c1ccc(Cl)cc1)OC(C(=O)Nc1cc(C(F)(F)F)ccc1Cl)c1ccccc1 (configuration not stated)	-1%
COc1ccnc(-c2nnc3ccc(Nc4cc(OC)c(OC)c(OC)c4)nn23)c1	i
Cc1ccc(S(=O)(=O)c2c(Nc3cccc(Cl)c3)sc(C(=O)c3ccc4c(c3)OCO4)c2N)cc1	-20%
CC(C)(C)N[S+](=O)([O-])c1cccc(-c2nnc(SCC(=O)Nc3ccc(C(=O)O)cc3)n2-c2ccccc2)c1	3%
COC(=O)CSc1ccc2nnc(CCNS(=O)(=O)c3ccccc3)n2n1	-15%

The closing 5 entries of the section before come first, to join the parts:
SMILES	nsP2pro inh
O=C(CNC(=O)c1ccc(Cl)cc1)OC(C(=O)Nc1cc(C(F)(F)F)ccc1Cl)c1ccccc1 (configuration not stated)	-1%
COc1ccnc(-c2nnc3ccc(Nc4cc(OC)c(OC)c(OC)c4)nn23)c1	i
Cc1ccc(S(=O)(=O)c2c(Nc3cccc(Cl)c3)sc(C(=O)c3ccc4c(c3)OCO4)c2N)cc1	-20%
CC(C)(C)N[S+](=O)([O-])c1cccc(-c2nnc(SCC(=O)Nc3ccc(C(=O)O)cc3)n2-c2ccccc2)c1	3%
COC(=O)CSc1ccc2nnc(CCNS(=O)(=O)c3ccccc3)n2n1	-15%
CCN(Cc1ccccc1)S(=O)(=O)c1ccc2[nH]c3c(c2c1)CCCCC3	-16%
C=CCN(C)C(=O)CC1COc2ccc(C(=O)N(C)C)cc2N1C (configuration not stated)	-6%
CCC(C)NC(=O)c1ccc2c(c1)N(Cc1cccc(Cl)c1)C(=O)c1ccccc1S2=O (configuration not stated)	-7%
Cc1cc(C)n2ncc(C(=O)NCc3ccccc3)c2n1	-6%
Fc1cccc(CSc2nc3ncc(Br)cc3[nH]2)c1	i
Cc1ccc(OCCn2c(CCNC(=O)c3cccc(F)c3)nc3ccccc32)cc1	i
COc1ccc2c3c4n(c2c1)[C@@H](C=C(C)C)OOC(C)(C)C[C@@H]4N1C(=O)[C@@H]2CCCN2C(=O)[C@]1(O)[C@H]3OCC=C(C)C	-9%[10 µM]
COc1ccc(Br)cc1CNC(=O)CCC(=O)N1CCSc2ccccc21	-12%
COc1cc(OC)c(NC(=O)c2nc(-c3ccncc3)no2)cc1Cl	-5%
O=C1CCCC2=C1C(c1[nH]ncc1Cl)N=C(c1nc3ccccc3o1)N2 (configuration not stated)	i
OCCN1C[C@H](O)[C@@H](O)[C@H](O)[C@H]1CO	-8%
COc1ccccc1CNCc1ccc(C(=O)O)s1	-24%
Cc1ccc(N2C(=O)N[C@@H]3CCN(C(=O)CC4(CC(=O)O)CCCC4)[C@@H]3C2=O)cc1	-6%[39.2 µM]
CCCNC(=O)C(C)n1nc(C)c2c(C)n(-c3ccccc3)nc2c1=O (configuration not stated)	-20%
CN(C)CCCNC(=O)c1ccc(-c2cnc3c(O)ccc(C(=O)O)c3c2)cc1	i
C[C@@H](OC(=O)/C=C/c1ccc(O)cc1)C1=C[C@]2(C=C[C@@H]3C(C(=O)O)=CO[C@@H](O[C@@H]4O[C@H](CO[C@@H]5O[C@H](CO)[C@@H](O)[C@H](O)[C@H]5O)[C@@H](O)[C@H](O)[C@H]4O)[C@@H]32)OC1=O	21%[10 µM]
Cc1ccc2cccc(NC(=O)C(C)(C)Oc3ccc(Br)cc3)c2n1	-12%
Cc1nn(C)c(C)c1S(=O)(=O)N1CCC2(CC1)CC(N(C)Cc1ccccc1)CCO2 (configuration not stated)	-3%
CCc1ccccc1S(=O)(=O)Nc1cccn2nc(C(C)C)nc12	7%
COc1cc(Cl)ccc1C(=O)N1CC[C@@H]2CN(S(C)(=O)=O)[C@@H]2C1	4%

The closing two compounds of the part before are carried over, then new ones follow.
SMILES	nsP2pro inh
CCc1ccccc1S(=O)(=O)Nc1cccn2nc(C(C)C)nc12	7%
COc1cc(Cl)ccc1C(=O)N1CC[C@@H]2CN(S(C)(=O)=O)[C@@H]2C1	4%
COc1ccc(CC(=O)Nc2nnc3n2CCS3)cc1OC	-17%
O=C(N[C@H]1CO[C@H]2[C@@H]1OC[C@@H]2Nc1nccc(-c2ccco2)n1)c1ccco1	1µM*
Cn1c(=O)c2c(SCC(=O)NCc3ccco3)nc(-c3cccc(F)c3)nc2n(C)c1=O	-23%
CC(C)N1CC(C(=O)NCCc2ccc(Cl)cc2)NC1=O (configuration not stated)	-2%[39.2 µM]
COc1ccc(CCNC(=O)CCCn2c(=O)c3ccccc3n(CC(=O)Nc3c(C)cc(C)cc3C)c2=O)cc1OC	-16%
Cc1nccn1C1(C(=O)O)CCN(Cc2ccc(-c3ccn[nH]3)o2)CC1	-15%
COc1ccc(Br)c(C(=O)Nc2cc3c(cc2N2CCCC2)n(C)c(=O)c(=O)n3C)c1	-33%
CS(=O)(=O)N1C[C@@H](Oc2ccccc2)C[C@H]1C(=O)N1CCCC1	i
CC1(C)S[C@@H]2[C@H](N)C(=O)N2[C@@H]1C(=O)O	1%[2.68 µM]
O=C(Cn1c(=O)c2cccn2c2ccc(F)cc21)N1CCN(c2ccc(F)cc2)CC1	-10%
O=c1c2c3c(sc2nnn1CCCCOc1ccc(Cl)cc1)CCCC3	-23%
CCC(Sc1nc2ccccc2c2nc(CCc3c(C)n[nH]c3C)nn12)C(=O)Nc1ccc(OC)cc1 (configuration not stated)	-1%
CC1=C(C(=O)Nc2nc3ccccc3s2)C2(CCCC2)N=C(Nc2nc3ccccc3o2)N1	-7%
C=C(C)C(=O)OC1CC2(C)OC(=CC2=O)C(=C)CC2OC(=O)C(=C)C12 (configuration not stated)	u
O=C(NC1CC(=O)N(c2ccc(Cl)cc2)C1)c1ccc(S(=O)(=O)N2CCOCC2)cc1 (configuration not stated)	-20%
COc1ccc(CNC(=O)Nc2ncc([N+](=O)[O-])s2)cc1	30%
Cc1ccc(-c2ccc(=O)n(CCNCCc3ccccc3)n2)cc1	i
O=C(C[C@@H]1CCNC[C@@H]1Cc1cc(CSc2ccccc2)on1)N1CCN(c2ccccc2)CC1	i
Nc1ncnc2c1c(-c1ccc(Cl)cc1)nn2-c1cccc(-c2cnnn2Cc2cccc(-c3ccccc3)c2)c1	10%
COc1ccc(-n2c(CCN)n[nH]c2=O)c(C)c1	1%
CCN(CC)CCNC(=O)c1ccc2c(c1)NC(=O)C(CS(=O)(=O)Cc1cccc(Br)c1)N2 (configuration not stated)	-7%
O=C(/C=C/c1ccc(O)c(O)c1)O[C@@H]1C[C@@](O)(C(=O)O)C[C@@H](O)[C@@H]1O	-6%
CC(C)(O)c1ccc2c(c1)C(O)C[C@H]1[C@](C)(C(=O)O)CCC[C@]21C (some centres not stated)	2%
Cc1cccc(Nc2nnc(-c3ccc(C)c(S(=O)(=O)N4CCCCC4)c3)c3ccccc23)c1	-19%
Cc1c(O)cccc1C(=O)N[C@@H](CSc1ccccc1)[C@H](O)CN1C[C@H]2CCCC[C@H]2C[C@H]1C(=O)NC(C)(C)C	u
COC1=CC(=O)O/C1=C(/OC)[C@@H]1O[C@H]1c1ccccc1	-10%
COc1cccc(CN2CC(C(=O)NCc3n[nH]c(=O)[nH]3)CCC2=O)c1 (configuration not stated)	-3%
O=C(c1n[nH]c2ccccc12)N1CCC2(CC1)N(c1ccccc1)C(=O)CS2=O (configuration not stated)	2%
COc1ccc(C2c3c(ncn(CCc4ccccc4)c3=N)Oc3ccc4ccccc4c32)cc1OC (configuration not stated)	-4%
COc1ccc(-c2ccnc3nc(C4CC4)nn23)cc1	-12%
O=C(Nc1ccc2n(c1=O)C[C@H]1C[C@@H]2CN(C(=O)COc2ccccc2)C1)c1ccccc1	-14%
Cc1ccc2[nH]c(CSc3nnc(NC(=O)COc4ccccc4Cl)s3)cc(=O)c2c1	-17%
O=C(NCCc1ccccc1)N1CC(c2noc(C3CCCN3CC3CC3)n2)C1 (configuration not stated)	i
CC(C)CNC(=O)C1CCCN(c2ccnc3ccnn23)C1 (configuration not stated)	i
COc1ccc(NC(=O)CN(C)S(=O)(=O)c2ccc3nc(C)sc3c2)cc1	-19%
Cc1cc(N[S+](=O)([O-])c2ccc(NC(=O)Cn3c(=O)oc4ccc(Cl)cc43)cc2)no1	u
O=C(N[C@H](c1ccccc1)C1CC(O)C1)c1ccc(-n2cccn2)cc1 (some centres not stated)	4%
Cc1cc2ncc(C(=O)NC(C)CCc3ccccc3)cn2n1 (configuration not stated)	-3%[39.2 µM]
CC(=O)C=C=C1C(C)(C)CC(O)CC1(C)O[C@@H]1O[C@H](CO[C@H]2OC[C@](O)(CO)[C@H]2O)[C@@H](O)[C@H](O)[C@H]1O (some centres not stated)	85%[activator][10 µM]
CCc1cccc2c(C(CC(=O)N3CCCCC3)c3cccc(OC)c3)c[nH]c12 (configuration not stated)	-8%
CC(=O)Nc1ccc(S(=O)(=O)N2C[C@@H]3C[C@H](C2)c2c(-c4ccc(OC(F)(F)F)cc4)ccc(=O)n2C3)cc1	u
Cc1ccc(S(=O)(=O)Nc2cnccc2C(=O)Nc2nc(-c3ccc(Oc4ccccc4)cc3)cs2)cc1	u
Cc1ccc(-c2cc(C(F)(F)F)n3nc(-c4ccc(Cl)cc4)cc3n2)cc1	-22%
CC(=O)N1CCN([C@H]2[C@@H]3OC[C@@H](O3)[C@@H](NCc3ccccc3O)[C@@H]2O)CC1	3%[39.2 µM]
COc1ccc(OC)c(C2=Nn3c(nnc3-c3ccccc3OC)SC2)c1	i
O=C(COc1ccc(Cl)cc1)NCCc1csc(-c2ccc(C(F)(F)F)cc2)n1	-28%
CCc1nc2nc(C)c(NS(=O)(=O)c3ccc(F)c(C)c3)c(=O)n2[nH]1	-19%
Cc1cc2nc3c(=O)[nH]c(=O)nc-3n(C[C@H](O)[C@H](O)[C@H](O)CO)c2cc1C	-7%[10 µM]
NC(=O)[C@H](Cc1ccc(O)cc1)NC(=O)[C@@]1(O)C[C@@H](O)[C@H](O)[C@@H](NC(=O)c2ccc(F)c(Cl)c2)C1	4%
Cc1noc(-c2ccccc2Cl)c1C(=O)NCCCc1ccccc1	-2%

A stretch taken from the entries so far:
SMILES	nsP2pro inh
Cc1cc2nc3c(=O)[nH]c(=O)nc-3n(C[C@H](O)[C@H](O)[C@H](O)CO)c2cc1C	-7%[10 µM]
NC(=O)[C@H](Cc1ccc(O)cc1)NC(=O)[C@@]1(O)C[C@@H](O)[C@H](O)[C@@H](NC(=O)c2ccc(F)c(Cl)c2)C1	4%
Cc1noc(-c2ccccc2Cl)c1C(=O)NCCCc1ccccc1	-2%

(listing goes on)
SMILES	nsP2pro inh
O=C(NCc1nc(-c2ncccn2)no1)c1csc(-c2cccs2)n1	-5%
O=C(N[C@H]1CCN2C(=O)N(c3cccc(C(F)(F)F)c3)C(=O)[C@@H]2C1)c1ccncc1	-9%[39.2 µM]
COc1cccc(Cn2c(=O)n(-c3ccc(Br)cc3F)c(=O)c3sc4ccccc4c32)c1	-20%
Cc1ccc(-c2ccc(=O)n(CC(=O)NCCc3ccccn3)n2)cc1	-3%
C=C(CO)C(=O)O[C@H]1C/C(C)=C/CC/C(CO)=C/[C@H]2OC(=O)C(=C)[C@H]12	-2%
CCc1ccc(-c2nn(CC(=O)NCc3ccccc3)c3c2cnc2ccc(F)cc23)cc1	-28%
O=C(Nc1ccc(C(=O)OCc2cc(=O)n3nc(C4CC4)sc3n2)cc1)c1cccc(Cl)c1	-2%
O=C(NC1CCCc2ccccc21)C1CN(C2CCCCC2)C(=O)N1 (configuration not stated)	i
COc1ccc(Cn2c(C)nnc2-c2cnn(C)c2N)cc1OC	u
Cc1nsc(NC(=O)NCc2ccccc2OC(F)(F)F)n1	-8%
Cc1ccc(C(=O)c2oc3ccccc3c2NC(=O)Cc2coc3ccc(C)cc23)cc1	-18%
COCCS(=O)(=O)c1ncc(CN(C)C(C)c2ccon2)n1Cc1ccccc1 (configuration not stated)	i
COc1ccc(-c2nnc3n2N=C(c2c(OC)cccc2OC)CS3)cc1	3%
Cc1ccc([S+](=O)([O-])N2CCN(c3nc4ncccc4o3)CC2)cc1	-9%
COCCN[C@H]1[C@@H]2OC[C@@H](O2)[C@@H](NC(=O)Nc2ccc(OC)cc2)[C@@H]1O	-8%[39.2 µM]
O=[S+]([O-])(c1ccc2c(c1)OCCO2)N1CCN([S+](=O)([O-])c2ccccc2Br)CC1	-6%
COc1ccc(-n2nc(C(=O)NCCc3ccc(Cl)cc3)c3c4ccccc4n(C)c3c2=O)cc1Cl	-7%
COc1ccc(NC(=O)N2CCCCC2c2nc(-c3cnccn3)n[nH]2)cc1 (configuration not stated)	u
O=c1cc(-c2ccccn2)oc2c(Nc3cccnc3)nccc12	-28%[39.2 µM]
COc1ccc(CCNC(=O)CSc2nc3nc(C)c(Cc4ccc(C)cc4)c(C)n3n2)cc1OC	-10%
CN(CCc1ccco1)c1ncnc2ccc(-c3ccc4c(c3)OCO4)cc12	u
Cc1ccsc1C(=O)N1C[C@@H](F)C[C@H]1C(=O)N1CCCCC1	-8%
CCOc1ccc(N2CC(C)Cn3c2nc2c3c(=O)n(Cc3c(F)cccc3Cl)c(=O)n2C)cc1 (configuration not stated)	-17%

This is a subset. The share of hits here may be higher or lower than overall.
